# GIV-Gai inh = blocks GIV peptide binding to rat Galpha-i3; P08753; Galpha-i3/FITC-GIV peptide fluorescence polarization, 90 min; stronger effect = lower value; scaled: aluminum fluoride 0%, vehicle 100%; percent of control (FP), % (concentration not given with the values); 210,000 compounds, 0.42% hits; AID 1224905;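 active = replicate mean at 85% of control or lower, very high polarization wells dropped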;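 note: wells of about 15 µL received 100 nL stock; the first replicate is given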
# Target sequence (P08753 whole entry, looked up): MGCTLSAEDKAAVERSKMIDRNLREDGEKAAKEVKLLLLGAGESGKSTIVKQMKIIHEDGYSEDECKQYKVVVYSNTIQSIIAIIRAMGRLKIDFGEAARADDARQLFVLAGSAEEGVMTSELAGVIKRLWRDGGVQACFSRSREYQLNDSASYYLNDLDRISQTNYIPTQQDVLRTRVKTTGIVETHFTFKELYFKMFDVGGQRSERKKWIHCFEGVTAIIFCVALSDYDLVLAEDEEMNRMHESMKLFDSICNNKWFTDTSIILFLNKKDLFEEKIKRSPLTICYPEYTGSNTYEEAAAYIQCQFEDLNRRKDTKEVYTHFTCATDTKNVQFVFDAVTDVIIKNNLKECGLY
# HCMV NEC inh = cytomegalovirus nuclear egress complex inhibition; HTRF UL50-UL53 interaction, normalized percent inhibition; inhibition, % (concentration not given with the values); 190,000 compounds, 0.15% hits; AID 1918969;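 active = both replicates at 50% or more, plus weaker picks with an unusually low signal ratio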;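 note: stock transfer was 100 nL into about 20 µL; 0% = negative control wells and 100% = wells with untagged competitor protein; inactives centre near -12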
# Sa growth 42C = inhibitors of Staphylococcus aureus growth at 42 °C | relative growth, % (concentration not given with the values) | S. aureus RN4220 growth, OD600, 20 h; stronger effect = lower value | 170,000 compounds, 0.53% hits;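 active = growth at 42 °C up to 50% and 20 or more points under that at 30 °C, or under 10% at both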;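 note: 300 nL library stock went into each well; scaled to the means of positive and negative controls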
# Sa growth 42C second temp = further read-out of Sa growth 42C, marked with its call; relative growth, %; measured here: growth at 30 °C;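 optical density after 20 h as mean of two plates; 100% = untreated growth and lower means inhibition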
# * marks the source's active call; other numbers are inactive results; / = no result given; & = joins results of further samples.
# The first five compounds (preview)
SMILES,GIV-Gai inh,HCMV NEC inh,Sa growth 42C,Sa growth 42C second temp
CC(OC(=O)C12CC3CC(CC(O)(C3)C1)C2)C(=O)N1CCCc2ccccc21 (stereo unspecified),/,1,96,95
CC(C)OCCCNC(=O)CSc1c2c(nc3ccc(Cl)cc13)CCCC2,104,-35,107,93
C=CCn1c(C(=O)OCC)cc2oc(C)cc21,107,6,76,89
COc1ccc(-c2nc3n(n2)C(c2cccc(C)c2)C(C(N)=O)=C(C)N3)cc1OC (stereo unspecified),105,-26,106,74
CC1CCC(NC(=O)c2ccc3c(c2)N(Cc2cccc(Cl)c2)C(=O)c2ccccc2S3=O)CC1 (stereo unspecified),98,/,92,84

# All compounds of this part, from the first entry:
SMILES,GIV-Gai inh,HCMV NEC inh,Sa growth 42C,Sa growth 42C second temp
CC(OC(=O)C12CC3CC(CC(O)(C3)C1)C2)C(=O)N1CCCc2ccccc21 (stereo unspecified),/,1,96,95
CC(C)OCCCNC(=O)CSc1c2c(nc3ccc(Cl)cc13)CCCC2,104,-35,107,93
C=CCn1c(C(=O)OCC)cc2oc(C)cc21,107,6,76,89
COc1ccc(-c2nc3n(n2)C(c2cccc(C)c2)C(C(N)=O)=C(C)N3)cc1OC (stereo unspecified),105,-26,106,74
CC1CCC(NC(=O)c2ccc3c(c2)N(Cc2cccc(Cl)c2)C(=O)c2ccccc2S3=O)CC1 (stereo unspecified),98,/,92,84
COC(=O)C1=C(C)N(C(C)C)C(=O)C1(NC(=O)c1ccc(C(C)(C)C)cc1)C(F)(F)F (stereo unspecified),104,4,86,81
CSc1ccc(CCNC(=O)Cn2ncc3c(=O)oc4ccccc4c32)cc1,107,-12,107,87
Fc1ccc(-c2ccc(CNCCSc3nnnn3-c3ccccc3)o2)cc1Cl,95,-12,107,53
O=C(Cc1cccc2ccccc12)NC1CC1,99,-12,101,95
CC1CCN(S(=O)(=O)c2ccc3c(ccn3CCC(=O)NCCCN3CCCCC3)c2)CC1,100,-1,/,/
CCC(C)NC(=O)c1cccc(NC(=O)c2nnc(COc3ccccc3)s2)c1 (stereo unspecified),104,10,/,/
COC(=O)c1ccc(C(=O)OC)c(NC(=O)c2ccc(-c3ccccc3)s2)c1,109,13,96,94
Cc1nn(CC(=O)NCc2cccc(Cl)c2)c(=O)c2nn(-c3ccccc3)c(C)c12,102,-12,/,/
COc1ccc(CNc2cc(C)ccn2)cc1,108,/,97,89
O=C(CSc1ccccn1)Nc1c(C(=O)C2CC2)oc2ccccc12,100,8,105,95
CC(=O)NC12CC3CC(C1)CC(C(=O)OCC(=O)Nc1ncc(Cl)c(C)c1Cl)(C3)C2,/,-11,90,62
N#Cc1nc(NC(=O)c2cc(-c3cccs3)nc3ccccc23)[nH]c1C#N,/,-57,73,83
CCCNC(=O)CSc1nccn1Cc1ccco1,108,-42,90,80
Cc1cc(C)nc(NOCc2ccccc2)n1,107,8,100,109
O=C(Cc1ccccc1)Nc1sc2c(c1C(=O)Nc1ccc(Br)cc1)CCCC2,108,10,98,86
O=C(Cc1cccc2ccccc12)N(Cc1nnc(-c2ccccc2Cl)o1)C1CC1,/,-14,108,88
O=C(Nc1cccc(-c2csc(NC(=O)c3ccc(F)cc3)n2)c1)c1ccc(F)cc1,/,-4,104,79
Cc1ccc(-c2cccc(N)c2)o1,104,-40,79,81
CC(CNC(=O)CC1=NS(=O)(=O)c2ccccc2N1)c1ccccc1 (stereo unspecified),103,10,81,80
COc1cc2c(cc1OC)C(CC#N)=NCC2,/,7,80,91
CC(C)C1=C2CCCCC2NC(=O)N1 (stereo unspecified),/,-5,79,101
CCOC(=O)N1CCC(=NNC(=O)CSc2nnc(-c3ccccc3)n2-c2ccccc2)CC1,/,-24,85,92
CN1CCN(NC(=S)Nc2ccccc2)CC1,100,-1,101,109
COc1ccc2c(c1)CCC1C2CCC2(C)C(O)CCC12 (stereo unspecified),102,-18,85,89
CCOC(=O)N1CCC(N2C(=O)c3ccccc3C2O)CC1 (stereo unspecified),105,/,100,91
N#C/C(=N\O)c1ccccc1Cl,98,-2,106,79
COc1ccc2nc(NC(=O)C3CCCN(S(=O)(=O)c4ccc5c(c4)oc(=O)n5C)C3)sc2c1 (stereo unspecified),100,-26,88,90
CCOc1ccccc1NC(=O)CN1CCN(S(=O)(=O)c2ccc(Br)cc2)CC1,97,/,83,83
CC1=C(C(=O)OC(C)C)C(C)C(C(=O)OC(C)C)=C(C)N1,100,-30,110,92
CNC(=O)Nc1cn(C)c2ccccc12,109,-28,101,96
COc1ccc(C2C(=O)N(C3CCC(C)CC3)CC(=O)N2Cc2ccccc2Cl)cc1OC (stereo unspecified),104,/,102,87
O=C(Oc1cccnc1)c1cccc(Br)c1,/,-15,116,74
Cc1cc(C)cc(NC(=O)C2CCN(S(=O)(=O)c3cn(C)cn3)CC2)c1,99,/,113,87
Cc1c(-c2nn3c(Cc4ccccc4)nnc3s2)nnn1-c1ccccc1,104&102,-24&-3,120,88
Cc1ccc(S(=O)(=O)Nc2nc3n(n2)C(c2ccc(Cl)cc2)C=C(c2ccc(Cl)cc2)N3)cc1 (stereo unspecified),113,-20,/,/

# The list goes on (five carried over from the part before).
SMILES,GIV-Gai inh,HCMV NEC inh,Sa growth 42C,Sa growth 42C second temp
COc1ccc(C2C(=O)N(C3CCC(C)CC3)CC(=O)N2Cc2ccccc2Cl)cc1OC (stereo unspecified),104,/,102,87
O=C(Oc1cccnc1)c1cccc(Br)c1,/,-15,116,74
Cc1cc(C)cc(NC(=O)C2CCN(S(=O)(=O)c3cn(C)cn3)CC2)c1,99,/,113,87
Cc1c(-c2nn3c(Cc4ccccc4)nnc3s2)nnn1-c1ccccc1,104&102,-24&-3,120,88
Cc1ccc(S(=O)(=O)Nc2nc3n(n2)C(c2ccc(Cl)cc2)C=C(c2ccc(Cl)cc2)N3)cc1 (stereo unspecified),113,-20,/,/
COc1ccc(OCC(=O)OCc2cc(=O)n3nc(C4CC4)sc3n2)cc1,106,/,89,84
O=C(Nc1ccccc1N1CCCCC1)c1ccc(F)cc1,97,-9,96,104
O=C1CC(N2CCC(Cc3ccccc3)CC2)C(=O)N1c1cccc(Cl)c1 (stereo unspecified),94,-7,/,/
CCCCc1noc(-c2ccc(OC(=O)c3ccccc3)cc2)n1,106,7,79,105
CCc1nn(CCCC(=O)NCc2ccccc2Br)c(=O)c2cc3occc3n12,99,-17,100,98
N#Cc1ccc(CN2C(=O)NC3(CCCc4ccccc43)C2=O)cc1 (stereo unspecified),/,5,99,107
Cc1ccc2nc(N3CCN(c4cccc(Cl)c4)CC3)c3nnnn3c2c1,138,/,101,76
C=CCN1C(=O)/C(=c2\sc3n(c2=O)C(c2ccc(OC(C)=O)cc2)C(C(=O)OCC)=C(C)N=3)c2ccccc21 (stereo unspecified),113,-8,/,/
COc1ccc(Cl)cc1C(=O)NCc1ccc(C(=O)O)cc1,105,-19,118,94
Cc1oc(C(C)(C)C)cc1C(=O)Nc1ccc(N2CCOCC2)cc1,105,-14,99,87
O=C1NC(=S)N(c2cccc(Br)c2)C(=O)/C1=C/c1cccn1-c1ccccc1,118,-9,/,/
O=C1c2ccccc2C(=O)N1CCc1nn2c(-c3cccnc3)nnc2s1,108,-76,87,92
CCc1ccc(N/N=C(\C#N)C(=O)N2CCN(C)CC2)cc1,/,-57,97,94
COc1ccc(-n2nc(C(=O)NCC(=O)Nc3ccc4c(c3)OCO4)c3ccccc3c2=O)c(OC)c1,100,-3,84,83
COc1ccc(NS(=O)(=O)c2ccc3oc(=O)c4ncn(C)c4c3c2)cc1,100,-21,/,/
COc1ccc(OC)c(NC(=O)N2CCC(CN3CCCCC3)CC2)c1,107,/,115,87
Clc1cc2[nH]cc(-c3nnnn3-c3ccccc3)c2cc1Cl,99,-6,107,93
O=C(CSC1=NNC(c2ccccn2)S1)c1ccc(Cl)cc1 (stereo unspecified),97,-17,93,103
N#Cc1c(N)nc2c(c1-c1ccc3c(c1)OCO3)CCc1ccccc1-2,102,-33,93,79
CC(C)(C)c1ccc(C(=O)Nc2ccc(Oc3cccnc3)nc2)cc1,104,-16,78,79
O=C(CN1C(=O)C2CCCCN2c2ccc(C(=O)N3CCCC3)cc21)NC1CCCCC1 (stereo unspecified),103,-35,/,/
Cc1cccc(/C=C2/NC(=O)NC2=O)c1,105,-113,89,82
Cc1ccc(S(=O)(=O)N(c2cccc(Cl)c2)c2nc3ccccc3s2)cc1,105,-6,94,79
O=C(Cc1c(F)cccc1Cl)NCC1CCCO1 (stereo unspecified),106,-15,112,95
CC(C)c1nc(-c2ccc(C(=O)NCc3noc(COc4ccccc4)n3)cc2)no1,104,16,/,/
CN1CCN(C(=O)c2cc3c(ccc4ccccc43)oc2=O)CC1,104,/,97,81
CCNC(=O)c1cc2cc3ccc(OC)c(Cl)c3nc2s1,103,-24,/,/
Cc1ccc(-c2nc(CSCC(=O)NC3CC3)c(C)o2)cc1,103,/,87,76
CCCCNC(=O)c1cccc(OC)c1,100,1,106,87
Cc1nc(C(N)=S)cs1,109,-18,89,88
CN(C)S(=O)(=O)c1ccc(S(=O)(=O)N2CCC(c3nc4c(nnn4Cc4cccc(F)c4)c(=O)[nH]3)CC2)cc1,100,-5,97,85
CCOc1ccc(-c2nc(COC(=O)C(NC(=O)c3ccco3)C(C)C)cs2)cc1OC (stereo unspecified),/,-32,87,77
O=S1(=O)c2ccccc2N(Cc2ccccc2)c2ccccc21,101,/,86,88
NC(=O)c1cnn2c1NCC=C2c1cccc(C(F)(F)F)c1,109,8,53,65
O=C(Cn1nnc(-c2ccc(S(=O)(=O)N3CCCC3)cc2)n1)Nc1ccccc1-n1cccc1,101,1,96,88
COc1ccccc1C(=O)C1C(=O)NC23CCN(C)CC2C1c1cc(Cl)ccc1O3 (stereo unspecified),95,0,104,89
CSc1ccc(CCNc2ncnc3onc(-c4ccc(Cl)cc4)c23)cc1,103,/,94,82
COc1cccc(C2Nc3ccccc3-c3nnc(SCc4ccccc4)nc3O2)c1OC (stereo unspecified),110,9,96,99
O=C(Cc1coc2cc(O)ccc12)OCC(=O)c1ccc2[nH]c(=O)[nH]c2c1,/,-24,71,90
COc1ccc2nc3oc(C(=O)N4CCN(c5cc(C)ccc5C)CC4)cc3cc2c1,106,-8,85,105
O=C1N=c2ccccc2=C1c1sc(=S)n(NC(=O)c2ccccc2Br)c1O,106,-22,/,/
CSc1ncc(C(=O)N2CCOCC2)n1-c1ccccc1,/,-10,98,96
O=S(=O)(c1cccc(-c2nn(CN3CCc4ccccc4C3)c(=S)o2)c1)N1CCCCC1,/,-23,100,87
Cc1ccc(NC(=O)C2CCN(C(=O)c3cnn(-c4ccccc4)c3-n3cccc3)CC2)cc1,109,4,100,81
Cc1[nH]c(C(=O)Nc2ccccc2)c(C)c1S(=O)(=O)N1CCCCC1,109,-33,/,/
Cc1ccc(NC(=O)COC(=O)Cc2c(C)noc2C)cc1C,/,-22,76,93
Cc1ccc2scc(N3CCOCC3)c(=O)c2c1,102&97,-82&-40,105,82
CCCc1ccc(S(=O)(=O)N2CCC(N3CCN(Cc4ccc(F)cc4)C(=O)C3=O)CC2)cc1,93,-1,/,/
CCOc1ccc(Br)cc1S(=O)(=O)NC1=NCCCCC1,/,-9,129,84
CCOC(=O)c1cccc(NC(=O)c2cc3c(-c4cccc(OC)c4)nn(C)c3s2)c1,103,-25,110,86
COc1ccc(-c2ccc(CCC(=O)O)[nH]2)cc1,180,-40,96,86
Cc1ccc(OCCn2c(SCC(N)=O)nc3ccccc32)c(C(C)C)c1,104,-8,/,/
COc1ccccc1N1CCN(c2cc(C)nc3nc(-c4ccc(C)cc4)nn23)CC1,106,-26,108,82
O=C(NCc1ccccc1F)c1ccc(N2C(=O)CCS2(=O)=O)cc1,101,-17,/,/
FC(F)(F)c1cccc(-n2cc(-c3ccccc3)c3c(N4CCCCC4)ncnc32)c1,102,/,114,88
CN(C)c1ccc(C(CNC(=O)c2ccccc2Cl)N2CCc3ccccc32)cc1 (stereo unspecified),102,/,106,90
CCCCN1CN(CCc2ccccc2)CC2=C1CC(C)(C)CC2=O,102,-18,90,93
O=C(NCCc1ccccc1)C1=CC=CN2CCS(=O)(=O)N=C12,/,-6,105,95
CCC(NC(=O)Oc1ccc2ccccc2c1)(C(F)(F)F)C(F)(F)F,/,-5,115,92
NC(=O)c1ccc(NC(=O)COC(=O)C2(c3ccccc3F)CCCC2)cc1,/,-8,98,100
# Following part
SMILES,GIV-Gai inh,HCMV NEC inh,Sa growth 42C,Sa growth 42C second temp
O=S(=O)(NCC(c1cccs1)S(=O)(=O)c1ccccc1)c1ccc(F)cc1 (stereo unspecified),103,/,135,94
CCN1CCc2c(sc(NC(=O)CSc3ccccc3)c2-c2nc3ccccc3s2)C1,169,/,134,84
Cc1nc2n(c(=O)c1CCN1CCC(c3noc4cc(F)ccc34)CC1)CCCC2O (stereo unspecified),95,-14,/,/
Cc1ccc(S(=O)(=O)N2Cc3ccccc3CC2C(=O)N2CCCCC2)cc1 (stereo unspecified),105,-7,120,112
O=C(N1CCOCC1)C(F)(F)C(F)(F)C(F)(F)F,96,-41,104,72
Cc1cc(Nc2ccc(Br)cc2)n2nc(-c3ccccc3C)nc2n1,107,-26,104,85

# Screening data deposited in PubChem BioAssay by ICCB-Longwood Screening Facility, Harvard Medical School.
